Compound activity (PubChem)
miR-21 FLuc: raises the signal of a miR-21 reporter. Potency, µM (highest dose often 38.3 µM), for the others: at the highest dose reporter change, positive = more light. 340,000 tested, under 10 active. HeLa miR-21 FLuc reporter, luciferase, 48 h; active = well fitted rising curve with a large enough effect; inconclusive = small, poorly fitted or top-dose-only effect; inactive = no such curve, though single readings can be large or run the other way;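 note: % of control where 0% means no effect; miR-21 action dims this reporter so a rising signal means less miR-21 action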
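HeLa miR-21-FLuc reporter line, endogenous miR-21; 2000 cells/well in DMEM/10% FBS; compound titration up to ~40uM final, 48 h, 37 degree Celsius; luciferase detection reagent, 15 min lysis, CCD luminescence.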
GLA inh pH 4.5: alpha-galactosidase A (human) inhibition, pH 4.5; purified enzyme, 4-MU-alpha-Gal fluorescence, pH 4.5; activity change, negative = inhibition, % at 105 µM; 230,000 tested, under 10 active; AID 1467; inconclusive = small, poorly fitted or top-dose-only inhibition, or a rising curve; inactive = flat fitted curve, though single readings scatter; no compound was filed as active;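 note: 0% = full activity with enzyme and -100% = basal without enzyme; dose as in the result columns while the protocol names 77 µM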
Rango complex inh: inhibitors of Rango-importin beta complex formation; hit rate 0.031% among 340,000; Potency, µM (top dose mostly 92.2 µM), inactives show at the highest dose inhibition of complex formation; Rango CFP/YFP FRET sensor + importin beta, 45 min; Q14974; active = rising FRET ratio curve, often small or poorly fitted; inconclusive = mostly compound fluorescence or quenching in the first reads; inactive = flat curves in all reads;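 note: potency is the fitted concentration of half-maximal effect; 0% = DMSO wells and 100% = buffer wells lacking importin beta; nearly all actives have a fitted effect of over 15% in size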
Target sequence (Q14974 whole entry, looked up): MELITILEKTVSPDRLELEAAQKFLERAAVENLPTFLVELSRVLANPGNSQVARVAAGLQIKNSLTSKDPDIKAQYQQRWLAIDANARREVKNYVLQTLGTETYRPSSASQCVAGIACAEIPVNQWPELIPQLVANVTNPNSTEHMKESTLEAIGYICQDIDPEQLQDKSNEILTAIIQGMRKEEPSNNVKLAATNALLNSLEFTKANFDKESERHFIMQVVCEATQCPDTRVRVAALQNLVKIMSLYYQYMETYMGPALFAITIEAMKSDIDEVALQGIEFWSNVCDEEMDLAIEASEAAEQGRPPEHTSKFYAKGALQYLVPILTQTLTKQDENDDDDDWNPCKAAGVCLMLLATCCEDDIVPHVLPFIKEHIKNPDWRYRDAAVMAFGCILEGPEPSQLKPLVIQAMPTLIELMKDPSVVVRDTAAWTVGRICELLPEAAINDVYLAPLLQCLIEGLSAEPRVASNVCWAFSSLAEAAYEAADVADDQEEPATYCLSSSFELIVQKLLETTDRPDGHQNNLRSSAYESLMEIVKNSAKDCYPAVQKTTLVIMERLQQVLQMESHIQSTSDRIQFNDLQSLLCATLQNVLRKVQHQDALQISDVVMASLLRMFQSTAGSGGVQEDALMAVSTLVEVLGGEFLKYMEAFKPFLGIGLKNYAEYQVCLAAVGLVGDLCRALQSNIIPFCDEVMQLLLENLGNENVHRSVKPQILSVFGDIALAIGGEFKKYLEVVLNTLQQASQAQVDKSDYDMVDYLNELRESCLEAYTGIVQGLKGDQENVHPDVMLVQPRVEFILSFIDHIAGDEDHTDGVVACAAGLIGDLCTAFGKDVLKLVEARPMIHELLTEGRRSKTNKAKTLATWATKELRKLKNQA
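FRET biosensor Rango (snurportin 1 IBB between N-terminal EYFP and C-terminal Cerulean), 50 nM in PBS/1 mM DTT/0.02% Tween-20/0.1% BSA, preincubated 5 min RT with compound; 0.125 microM importin beta added, 45 min RT, CFP/YFP FRET ratio read.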
Rango dissoc inh: prevents RanGTP from dissociating the Rango-importin beta complex. O95149+P62826. Biochemical FRET Rango-importin beta, RanGTP-induced dissociation. Potency, µM (highest dose often 46.1 µM), without a hit: at the top dose activity change, negative = inhibition. hit rate 0.071% among 340,000. AID 540253; active means falling FRET ratio curve, often poorly fitted, with flat reads before Ran was added; inconclusive means other falling curves, or compound fluorescence or quenching; inactive means flat or rising ratio curve;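 note: potency is the fitted concentration of half-maximal effect; % of control where 0% means no effect; nearly all actives have a fitted effect of over 45% in size; -100% = wells without RanGTP and RCC1; the record marks most hits as doubtful in a second field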
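Recombinant Rango FRET biosensor (EYFP–snurportin 1 IBB–cerulean CFP10) at 0.1 uM premixed with 0.25 uM importin beta in PBS, 1 mM DTT, 0.02% Tween-20, 0.1% BSA. Compound added 5 min; RanGTP-RCC1 (0.6 uM Ran, 2 mM GTP, 0.2 uM RCC1) then triggers release, read at 45 min.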
Starred values were filed as active, the others as inactive; ? = inconclusive; · = not tested or not shown; & = joins results of further samples. Only part of the results is shown (hit frequency here may not be typical).

structure,miR-21 FLuc,GLA inh pH 4.5,Rango complex inh,Rango dissoc inh
CCCCN(C(=O)CCCc1nc2ccccc2s1)c1c(N)n(CC(C)C)c(=O)[nH]c1=O,·,·,-3.1%,?
Cc1ccc2nsnc2c1NC(=O)c1cncc(Br)c1,-3%,-14,3.1%,12%
CCN(CCCNC(=O)Cn1ncc2c(=O)oc3ccccc3c21)c1cccc(C)c1,16%,-1,-1.0%,1%
COC(=O)c1cc(NC(=O)C2CCCN(S(=O)(=O)c3c(C)n[nH]c3C)C2)cc(C(=O)OC)c1 (configuration not stated),-4%&0%,-5,·,·
O=C(NCCOC12CC3CC(CC(C3)C1)C2)c1cccc(Br)c1,-21%,-1,1.5%,11%
Cc1nc2nc(SCc3ccc([N+](=O)[O-])cc3)[nH]c2cc1Br,-7%,-12,0.3%,1%
CC(C)(C)c1ccc(C(=O)NNC(=O)C2CCCCC2)cc1,2%,-5,6.6%,-3%
CSc1ncccc1C(=O)NCc1ccccc1Cl,-7%,·,2.4%,7%
CCOC(=O)c1[nH]c(C)c(C)c1C,1%,-19,-0.4%,-12%
COc1cc(C(=O)NCc2ncccc2C)ccc1OC1CCN(C(C)=O)CC1,-7%,·,3.3%,7%

(list continues)
structure,miR-21 FLuc,GLA inh pH 4.5,Rango complex inh,Rango dissoc inh
COc1cc(CN(C)C(C)C(=O)Nc2ccc([N+](=O)[O-])cc2Cl)ccc1OC(F)F (configuration not stated),1%,-4,-0.5%,2%
CCOC(=O)CCN(Cc1ccccc1)S(=O)(=O)c1csc(C(N)=O)c1,5%&1%,·,2.9%,14%
COc1ccccc1N1C(=O)c2ccc(C(=O)Nc3ccc(C(=O)O)cc3)cc2C1=O,1%,·,4.3%,16%
Cc1ccc(S(=O)(=O)NC(=NC2CCCCC2)c2ccc(Cl)cc2)cc1,-6%,·,0.0%,1%
COc1cccc(C(=O)Nc2ccc(NC(=O)C(C)(C)C)cn2)c1,8%,-3,-0.9%,20%
CCC(CC)NC(=O)CCc1nc2ccccc2c(=O)[nH]1,1%,3,-2.8%,17%
O=[N+]([O-])c1ccc(CSc2ccc(S(=O)(=O)N3CCOCC3)cn2)cc1,·,·,-2.8%,-9%
O=C(O)C1CC=CCC1C(=O)NNS(=O)(=O)c1ccccc1 (configuration not stated),1%,0,0.5%,-14%
COc1ccc(C2CC(=O)Oc3cc(OC)ccc32)cc1 (configuration not stated),·,-4,-0.1%,13%
CC(C)c1ccccc1OS(N)(=O)=O,0%,·,-2.9%,-5%

Next section.
structure,miR-21 FLuc,GLA inh pH 4.5,Rango complex inh,Rango dissoc inh
NC(=O)c1ccsc1NC(=O)CCS(=O)(=O)c1ccc(Cl)cc1,·,·,-0.6%,5%
O=C(NC(NC(=S)Nc1ccccc1C(=O)O)C(Cl)(Cl)Cl)c1cccc([N+](=O)[O-])c1 (configuration not stated),-10%,6,0.3%,25%
CCn1c(=O)cc(N2CCOCC2)[nH]c1=O,0%,1,-3.3%,7%
CC1(C)Cc2c(c(=S)nc(-c3ccccc3)n2Cc2cccnc2)CO1,-3%,2,0.5%,2%
CC1CCCCC1NC(=O)c1ccc2c(c1)OCCO2 (configuration not stated),·,·,-1.5%,1%
CCCc1nc2c(nnn2Cc2ccccc2)c(=O)[nH]1,-12%,1,2.1%,1%
COc1cccc(C(=O)N=c2sc3c(C)ccc(OC)c3n2C)c1,-53%,9,3.9%,1%
CCc1ccc2c(c1)[C@H]1OCC[C@H]1[C@@H](c1cccs1)N2,-2%,3,5.5%,5%
Cc1ccc(N2C(=O)N(CC(=O)NCc3ccc(Cl)cc3)C(=O)C2C)cc1 (configuration not stated),-4%,4,-3.8%,11%
CN(Cc1ccccc1)C(=O)COC(=O)c1ccc(Br)c(S(=O)(=O)N2CCOCC2)c1,·,·,-4.0%,-8%

Other compounds follow.
structure,miR-21 FLuc,GLA inh pH 4.5,Rango complex inh,Rango dissoc inh
Cc1noc2ncnc(N3CCN(c4ccc(F)cc4)CC3)c12,-2%,1,-1.3%,0%
CCOC(CCNC(=O)c1cc2c(=O)[nH]c3ccccc3c2s1)OCC,-11%,·,-0.7%,8%
COc1ccc(Cl)cc1NC(=O)CN(C)C(=O)c1cn2ccccc2n1,·,·,-0.5%,3%
O=C(c1ccc(NS(=O)(=O)c2cccs2)cc1)N1CCOCC1,0%,·,-2.6%,-9%
Clc1ccccc1-c1nnc2sc(-c3ccncc3)nn12,-2%,2,4.0%,0%
N#Cc1ccc(-c2ccc(OCC(O)Cn3nnc4ccccc43)cc2)cc1 (configuration not stated),14%,2,-1.9%,-1%
CCCC(C(=O)NC1CCCC1)N(C(=O)Cn1nnc(-c2ccc(C)o2)n1)c1ccccc1OC (configuration not stated),-3%,-3,0.6%,5%
CCOC(=O)N1CCN(C(=O)COC(=O)C2CCN(S(=O)(=O)c3c(C)c(C)cc(C)c3C)CC2)CC1,·,·,-3.4%,-5%
CCOC(=O)C(Cc1ccccc1)NC(=O)CCc1nnc2ccc(N3CCCC3)nn12 (configuration not stated),0%,·,8.3%,-10%
CN1CCN(c2ccccc2NC(=O)c2ccc(N3CCCC3)c([N+](=O)[O-])c2)CC1,-22%,-6,0.3%,10%

Molecules from the list above that contain an NH in an aromatic ring:
structure,miR-21 FLuc,GLA inh pH 4.5,Rango complex inh,Rango dissoc inh
CCCCN(C(=O)CCCc1nc2ccccc2s1)c1c(N)n(CC(C)C)c(=O)[nH]c1=O,·,·,-3.1%,?
COC(=O)c1cc(NC(=O)C2CCCN(S(=O)(=O)c3c(C)n[nH]c3C)C2)cc(C(=O)OC)c1 (configuration not stated),-4%&0%,-5,·,·
Cc1nc2nc(SCc3ccc([N+](=O)[O-])cc3)[nH]c2cc1Br,-7%,-12,0.3%,1%
CCOC(=O)c1[nH]c(C)c(C)c1C,1%,-19,-0.4%,-12%
CCC(CC)NC(=O)CCc1nc2ccccc2c(=O)[nH]1,1%,3,-2.8%,17%
CCn1c(=O)cc(N2CCOCC2)[nH]c1=O,0%,1,-3.3%,7%
CCCc1nc2c(nnn2Cc2ccccc2)c(=O)[nH]1,-12%,1,2.1%,1%
CCOC(CCNC(=O)c1cc2c(=O)[nH]c3ccccc3c2s1)OCC,-11%,·,-0.7%,8%

Continued:
Each structure is followed by: miR-21 FLuc, GLA inh pH 4.5, Rango complex inh, Rango dissoc inh
- CC1=C(C(=O)OCc2ccccc2)C(c2ccc(Cl)cc2Cl)NC(=O)N1CCCCCC(=O)O (configuration not stated)
 : -16%, 3, 1.1%, 2%
- COc1ccccc1NC(=O)N(Cc1cc2cc(OC)c(OC)cc2[nH]c1=O)CC1CCCO1 (configuration not stated)
 : -1%, -2, 0.7%, -4%
- O=C(Nc1ccc2[nH]ncc2c1)c1ccccc1
 : -14%, ·, 2.8%, -7%
- Cc1oc2c(c1C(=O)N1CCOCC1)C(=O)c1ccccc1C2=O
 : 23%, 2, -0.4%, -4%
- COc1ccc(COc2ccc3ccc(=O)oc3c2)cc1
 : -71%, ·, 1.3%, 1%
- CCc1ccc(-c2cc(C)no2)cc1S(=O)(=O)Nc1cc(C)on1
 : -2%, ·, 0.3%, -2%
- Cc1cc(NC(=O)C2C3C=CC(C3)C2C(=O)O)no1 (configuration not stated)
 : 0%, 6, 1.3%, 12%
- CC(C)(C)OC(=O)N1CCN(C(=O)c2[nH]cnc2C(=O)NCc2ccccc2)CC1
 : ·, ·, -1.2%, -14%
- COc1ccc(/C(N)=N/OC(=O)c2cccc([N+](=O)[O-])c2)cc1
 : -18%, 5, -1.4%, -3%
- COc1ccc(OC)c(-c2cc(C(=O)Nc3cccc(Cl)c3)no2)c1
 : -6%, 11, -2.9%, 10%
- CCCCN(CCCC)CC(O)CN1C(=O)NC(C)(C)C1=O (configuration not stated)
 : 1%, 2, -0.8%, -1%
- Cc1ccc(C(=O)c2c(NC(=O)CSc3nnc(N)s3)sc3c2CCCC3)cc1
 : 4%, 3, 3.9%, 1%
- COc1cc2c(cc1NC(=O)CSc1nnnn1-c1ccccc1)oc1ccccc12
 : 1%, -6, -0.5%, 11%
- Cc1ccc(-n2ncc3c(=O)n(CC(=O)NCc4ccco4)cnc32)cc1C
 : 20%, -4, 0.0%, 26%
- CCn1c(O)c(C2=NCCCC2)c2ccccc21
 : -21%, -2, -2.1%, 19%
- COc1cc(/C=N/NC(=S)Nc2cccc(S(=O)(=O)N(C)C)c2)ccc1O
 : -15%, -14, ?, -22%
- O=C(COC(=O)c1ccc(OC(F)F)cc1)NC(=O)NC1CCCC1
 : ·, ·, -0.8%, -3%
- COC(=O)CCN1CCC(c2cc(-c3cccc(C(F)(F)F)c3)n[nH]2)CC1
 : -6%, ·, 1.2%, 1%
- CN(C(=O)CSc1nc2cc(Cl)ccc2c(=O)n1Cc1ccco1)C1CCS(=O)(=O)C1 (configuration not stated)
 : 0%, 5, -1.1%, -2%
- COc1cccc(NC(=O)CC(C)=O)c1
 : -5%, -4, 0.2%, 4%
- Cc1cc(C)cc(N(CC(=O)N2CCn3c2nc2ccccc23)S(=O)(=O)c2c(C)noc2C)c1
 : 2%, 6, 0.5%, -2%
- COc1ccc(NC(=O)CN(C)CC(=O)Nc2cccc3ccccc23)c(OC)c1
 : ·, ·, 1.7%, 11%
- CCCNC(=O)COC(=O)c1cc(-c2ccc(OC)cc2)nc2ccccc12
 : 0%, 12, ?, -13%
- CC(C)n1c(=S)[nH]c2c1c(=O)[nH]c(=O)n2C
 : -1%, -7, -1.5%, -2%
- CC1CCN(C(=O)c2cc(Cl)ccc2NC(=O)c2ccco2)CC1
 : 2%, ·, 0.5%, -2%
- CSc1ccc(Cl)c(C(=O)OCC(=O)N2CCN(c3ccccc3)CC2)c1
 : ·, ·, -0.1%, -14%
- Cc1ccn2c(NC(=O)c3ccco3)c(-c3ccccc3)nc2c1
 : -10%, -12, 0.4%, -10%
- CCc1cc2c(SCC#N)ncnc2s1
 : 4%, -3, 2.7%, -11%
- Cc1ccc(-n2nc3c(c2NC(=O)CCC2CCCCC2)CS(=O)C3)cc1 (configuration not stated)
 : -10%, 1, 2.1%, -1%
- Fc1ccccc1Nc1n[nH]c(=S)s1
 : -39%, 2, 0.4%, -12%

Other compounds follow:
Each structure is followed by: miR-21 FLuc, GLA inh pH 4.5, Rango complex inh, Rango dissoc inh
- CCc1ccc(S(=O)(=O)NCc2csc(C)n2)cc1
 : 1%, ·, -0.9%, -12%
- Cc1cc(N/N=C/c2ccc(N(C)C)cc2)nc(NCc2ccccc2)n1
 : 3%, -5, ?, ?
- CN(C)c1nnnn1-c1cccc(Oc2ncc(C(F)(F)F)cc2Cl)c1
 : 5%, -7, -0.8%, -11%
- CCc1nnc(NC(=O)Cn2nc(-c3ccc(OC)c(OC)c3)ccc2=O)s1
 : -6%, -2, -0.3%, -12%
- Cc1cc(NC(=S)Nc2ccc(C)c(Cl)c2)n[nH]1
 : -85%, -14, 3.0%, -1%
- CC(=O)COC(=O)c1cc(-c2ccc(C)cc2)nc2ccccc12
 : -22%, -4, 4.3%, -6%
- CCOC(=O)c1sc(=NC(=O)/C=C/c2cccs2)n(C)c1C
 : -54%, 3, -0.1%, 13%
- O=C(c1ccccc1)N1CCN(C(=O)C23CC4CC(CC(C4)C2)C3)CC1
 : -2%, 2, -5.3%, -5%
- Cc1onc(-c2c(F)cccc2Cl)c1C(=O)NCCc1ccc(S(N)(=O)=O)cc1
 : -3%, 10, 2.8%, -2%
- O=C(Nc1ccccc1N1CCCCC1)c1ccc([N+](=O)[O-])o1
 : ·, ·, -1.4%, -9%
